Source: PubChem
Env fusion inh – blocks HIV Env-driven cell-cell fusion; AID 651610; 360,000 tested, 1.1% active; inhibition, % at 12.3 µM; HeLa-JRFL Env/CEM21 cell fusion, luciferase;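 active = mean replicate inhibition score of at least 50 and every replicate individually at or above 50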;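 note: 0% = plate neutral controls and 100% = maraviroc near 300 nM; one replicate is shown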
Yeast UUG start – yeast start codon fidelity modulation; S. cerevisiae UUG-firefly luciferase reporter, luminescence/redox ratio; activity score, % at 18.7 µM; 350,000 tested, 0.13% active; AID 602363;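 active = replicate mean at a twofold rise or more, about +100% in these data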;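 note: firefly luciferase made from a UUG start codon reports start codon fidelity; reporter light over untreated wells divided by growth signal over untreated wells; some hits fall short of that in this replicate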
CSC inhib – cancer stem cell inhibition; inhibition, % at 7.5 µM; 300,000 tested, 1.1% active; cancer stem cell-like cells viability, luminescence;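 active = mean at 75% or more and at least half the replicates too; tested in HMLE shEcad cells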;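 note: 0% = median of negative and 100% = median of positive control wells; the first replicate is given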
PABP FP inh – PABP-poly(A) binding inhibition; 290,000 tested, 1% active; inhibition, % at 35 µM; PABP-poly(A) RNA binding, fluorescence polarization; AID 2014; P11940;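 active = 50% or more with normal probe brightness, or confirmed in later tests; about a fifth of its hits are not listed in these tables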;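 note: calls also rest on retests at 20 µM and on dose response follow-up; controls were probe without protein and protein plus probe with vehicle; some compounds called inactive have numbers as strong as hits; many hits fall short of the cut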
Target sequence (P11940 whole entry, looked up): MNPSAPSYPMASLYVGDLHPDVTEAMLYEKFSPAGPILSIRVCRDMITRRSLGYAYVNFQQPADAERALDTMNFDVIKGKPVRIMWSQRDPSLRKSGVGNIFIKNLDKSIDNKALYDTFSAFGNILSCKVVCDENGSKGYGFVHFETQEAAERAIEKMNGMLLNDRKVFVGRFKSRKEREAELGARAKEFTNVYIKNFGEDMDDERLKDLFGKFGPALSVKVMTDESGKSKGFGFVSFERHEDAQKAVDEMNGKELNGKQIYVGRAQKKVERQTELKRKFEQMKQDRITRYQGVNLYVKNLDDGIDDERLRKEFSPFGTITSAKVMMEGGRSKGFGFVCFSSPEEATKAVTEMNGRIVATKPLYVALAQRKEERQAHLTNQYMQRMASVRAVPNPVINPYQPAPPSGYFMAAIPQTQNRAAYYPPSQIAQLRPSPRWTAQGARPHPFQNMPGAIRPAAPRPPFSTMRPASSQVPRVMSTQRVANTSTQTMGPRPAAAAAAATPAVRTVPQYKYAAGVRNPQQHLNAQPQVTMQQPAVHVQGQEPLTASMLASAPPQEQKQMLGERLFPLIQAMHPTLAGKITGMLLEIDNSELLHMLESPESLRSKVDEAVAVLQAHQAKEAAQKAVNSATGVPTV
eIF4H inh – inhibitors of RNA binding by human eIF4H; Q15056; eIF4H fluorescence polarization binding assay; inhibition, % at 35 µM; 290,000 tested, 0.94% active; AID 2012;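 active = 50% or more with normal probe brightness, or confirmed in later tests; about a fifth of its hits are not listed in these tables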;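 note: calls also rest on retests at 20 µM and on dose response follow-up; 0% = protein and probe with vehicle and 100% = probe without protein; strong numbers were not always called active; many hits fall short of the cut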
Rce1 inhib – blocks yeast Ras-converting enzyme; Q03530; yeast membranes, quenched prenylated peptide cleavage fluorescence; calls only; 290,000 tested, 0.27% active;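 active = fall in fluorescence gain of 50% or more versus controls, with final raw signal at or below 3038400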;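 note: plate controls were neutral control wells for no effect and wells lacking membranes for full effect; tested at 10 µM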
Target sequence (Q03530 whole entry, looked up): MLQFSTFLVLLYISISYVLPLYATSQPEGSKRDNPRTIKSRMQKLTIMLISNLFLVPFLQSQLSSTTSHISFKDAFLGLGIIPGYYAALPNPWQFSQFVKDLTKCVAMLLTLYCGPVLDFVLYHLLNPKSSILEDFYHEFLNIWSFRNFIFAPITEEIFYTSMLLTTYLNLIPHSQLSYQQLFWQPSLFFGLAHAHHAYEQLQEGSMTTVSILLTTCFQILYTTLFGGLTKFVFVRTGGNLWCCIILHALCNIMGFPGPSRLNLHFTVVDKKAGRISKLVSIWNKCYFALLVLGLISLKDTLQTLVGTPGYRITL
MT1-MMP act inh – blocks activation of human MT1-MMP; P50281; HT1080 RFP-PRO-GFP cells, GFP/RFP ratio fluorescence, overnight; percent of plate control window, DMSO zero; GFP/RFP ratio change, % at 20 µM; 360,000 tested, 0.061% active; AID 651647;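 active = GFP/RFP ratio change of at least 30% with cell ATP level not reduced by more than half and red fluorescence within 50% of control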; note: strong numbers were not always called active
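Material: RFP-PRO-GFP reporter HT1080 cells. Dosing: single-point 20 µM compound, 1% DMSO. Controls: DMSO and RFP-L50D-GFP cell wells. Timing: cells overnight before dosing, compound overnight, 37 °C, 5% CO2. Measure: GFP/RFP fluorescence ratio.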
eIF4H inh retest – also measured in eIF4H inh; calls as there; inhibition, %; compound at 20 µM; confirmation average;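 mean of two retest wells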
PABP FP inh retest – recorded beside PABP FP inh, whose call it bears; inhibition, %; compound at 20 µM; confirmation repeats;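 mean of two retest wells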
MT1-MMP act inh RFP – second read-out of MT1-MMP act inh, no call of its own (marks repeat the call); RFP signal change, %; measured here: RFP expression control read;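 0 = vehicle wells; hits needed this value within 50% of zero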
* = called active by the depositor; i = inactive; · = no result given.

SMILES | Env fusion inh | Yeast UUG start | CSC inhib | PABP FP inh | eIF4H inh | Rce1 inhib | MT1-MMP act inh | MT1-MMP act inh RFP | others
CCOc1ccc(OCc2cccc(C(=O)N(CC)CC)c2)cc1 | 10 | · | -9 | -3 | -4 | i | 0 | -5
Nc1nc(Nc2ccccc2Br)nc(C(F)(F)F)n1 | -119 | -3 | -12 | -12 | 1 | i | 0 | 1
COc1ccc(C2c3[nH]c4ccccc4c3C[C@H]3C(=O)N(CC(C)C)CC(=O)N23)c(OC)c1 (stereo partly specified) | 20 | 8 | -1 | -1 | 1 | i | 1 | -5
CS(=O)(=O)N(CC(=O)N1CCN(Cc2ccccc2)CC1)c1cccc(F)c1 | -6 | 6 | -1 | 2 | 6 | i | 3 | -3
Clc1cccc(Cc2nn[nH]n2)c1 | 2 | -25 | 15 | -7 | -12 | i | -1 | -1
c1ccc(CC(Nc2ccccn2)c2ccccc2)cc1 (stereo unspecified) | -18 | · | 8 | 3 | -4 | i | -2 | -7
Cn1c(-c2ccccc2)cnc1NCc1cc2c(cc1[N+](=O)[O-])OCO2 | · | -16 | -13 | 6 | 14 | i | 7 | 8
C=CCOc1ccc(/C=C/C(=O)Nc2ccc(C(=O)NC)cc2)cc1 | 10 | -8 | 7 | -10 | -12 | i | -6 | -6
CCCCN1CC(C)(C)Oc2cccc(F)c2S1(=O)=O | 4 | -1 | · | · | · | · | 3 | 3
Cc1cc(C(=O)Nc2c(C)nn(Cc3ccccc3)c2C)on1 | 25 | -8 | 1 | 6 | -4 | i | 0 | 2
O=C(NCC1CCCN1S(=O)(=O)c1cccs1)c1ccc(F)cc1 (stereo unspecified) | 1 | -14 | -8 | · | · | i | -2 | -2
CN(CCC1CCOCC1)C(=O)CC1C(=O)NCCN1Cc1cccc(F)c1 (stereo unspecified) | -3 | -12 | -10 | 7 | -3 | i | -1 | 0
CCOC(=O)C1=C(COC(=O)/C=C/c2ccc(OC)c(OC)c2)NC(=O)NC1C (stereo unspecified) | -5 | 1 | -3 | · | · | i | 10 | 6
COCCN(C(=O)c1snc(C(N)=O)c1N)C(C(=O)NC1CCCC1)c1cc(OC)c(OC)c(OC)c1 (stereo unspecified) | -3 | -2 | -19 | 3 | 1 | i | 1 | 0
C=CCN1C=C2C(=O)C(C)(OC(=O)c3cccs3)C(=O)C=C2C=C1CCCC(=O)OC (stereo unspecified) | -22 | -3 | 7 | 14 | 44 | i | 3 | 4
COc1ccc(S(=O)(=O)Nc2ccc3c(c2)C(=O)N([C@H](C)CO)C[C@H](C)[C@@H](CN(C)S(=O)(=O)c2ccc(OC)cc2)O3)cc1 | -9 | -4 | · | · | · | · | 4 | 2
CC1CCCC(C)N1CCCNC(=O)Cn1ncc2c3ccccc3n(C)c2c1=O (stereo unspecified) | · | -15 | -16 | 0 | 5 | i | 1 | 5
O=C(CSC1=NCCS1)Nc1nc2ccccc2s1 | -53 | -22 | 0 | -7 | -10 | i | 0 | -4
Cc1[nH]c2ccccc2c1C(=O)/C=C/c1ccccc1 | · | -7 | 3 | 10 | -10 | i | -11 | -5
CSc1ccc(Cl)c(C(=O)NNC(=O)c2cccs2)c1 | 5 | -16 | 3 | · | · | · | 2 | 1

Among those listed so far, 5 contain fluorine:
SMILES | Env fusion inh | Yeast UUG start | CSC inhib | PABP FP inh | eIF4H inh | Rce1 inhib | MT1-MMP act inh | MT1-MMP act inh RFP | others
Nc1nc(Nc2ccccc2Br)nc(C(F)(F)F)n1 | -119 | -3 | -12 | -12 | 1 | i | 0 | 1
CS(=O)(=O)N(CC(=O)N1CCN(Cc2ccccc2)CC1)c1cccc(F)c1 | -6 | 6 | -1 | 2 | 6 | i | 3 | -3
CCCCN1CC(C)(C)Oc2cccc(F)c2S1(=O)=O | 4 | -1 | · | · | · | · | 3 | 3
O=C(NCC1CCCN1S(=O)(=O)c1cccs1)c1ccc(F)cc1 (stereo unspecified) | 1 | -14 | -8 | · | · | i | -2 | -2
CN(CCC1CCOCC1)C(=O)CC1C(=O)NCCN1Cc1cccc(F)c1 (stereo unspecified) | -3 | -12 | -10 | 7 | -3 | i | -1 | 0

(further entries)
SMILES | Env fusion inh | Yeast UUG start | CSC inhib | PABP FP inh | eIF4H inh | Rce1 inhib | MT1-MMP act inh | MT1-MMP act inh RFP | others
COc1ccc(C2CC(c3ccccc3OC(C)=O)=NN2C(=O)/C=C/c2ccccc2)cc1OC (stereo unspecified) | -7 | · | 38 | 44 | 10 | i | -3 | -6
O=C(NCCCN1CCCCC1)C1CCN(c2ncnc3c2nc2n3CCCCC2)CC1 | -5 | -3 | -14 | 5 | -2 | i | 6 | 7
Cc1ccccc1Nc1c(-c2ccccn2)nc2ccccn12 | -113 | -33 | 37 | -9 | 11 | i | 3 | -10
O=C(NCc1ccccc1)NS(=O)(=O)c1ccccc1Cl | -62 | -9 | -5 | 5 | -10 | i | -1 | 5
COc1ccc2c(c1)Cc1sc(NC(=O)c3cccs3)nc1-2 | -88 | -10 | -3 | 29 | 5 | i | -4 | -16
CC[C@H](C)[C@H](NC(N)=O)C(=O)NCCc1ccc(Cl)cc1Cl | 12 | · | -5 | 0 | 1 | i | 2 | 3
Cc1ccc(/C=C/C(=O)OC(C)C(=O)Nc2ccc(Cl)cn2)o1 (stereo unspecified) | -17 | · | 7 | 8 | 23 | i | -2 | 10
O=C(C1=C(O)C(=O)N(Cc2cccnc2)C1c1cccc(Oc2ccccc2)c1)c1ccco1 (stereo unspecified) | · | -8 | -2 | · | · | · | 5 | -1
O=C(c1cccc(Cl)c1)N1CCN(Cc2ccncc2)CC1 | · | -7 | · | 0 | 9 | · | 1 | 0
Cc1ccc(OCCC(=O)Nc2ccc(S(=O)(=O)Nc3nccs3)cc2)cc1 | · | 0 | -6 | · | · | · | 2 | 5
O=C1N[C@@H](Cc2ccccc2)COC(=O)[C@H](Cc2ccc(F)cc2)CC/C=C/C[C@H]1CC(=O)N(CCO)Cc1ccccc1 | -1 | -10 | -1 | · | · | · | -2 | -15
CCc1ccc(Nc2nc3ccccc3c(=O)s2)cc1 | -14 | · | 11 | 8 | 3 | i | 6 | 5
CC(c1ccco1)N(C(=O)c1cccc(Br)c1)c1ccccn1 (stereo unspecified) | -4 | -12 | 6 | -1 | 1 | i | 5 | -3
CC[C@]12c3[nH]c4ccccc4c3CCN1C(=O)C(CC(=O)NCCc1ccccn1)C[C@@H]2C(=O)N1CCN(C(=O)c2ccco2)CC1 (stereo partly specified) | · | 5 | 7 | · | · | · | -4 | 0
CC(=O)NCCc1ccc(C(=O)CSc2nnc(C3CC3)n2C2CC2)cc1 | · | -10 | 6 | · | · | · | -1 | 1
CCOc1ccc(-c2nnc(N3CCCCC3)c3ccccc23)cc1 | 28 | -2 | 23 | 13 | -2 | i | -4 | -5
CCOC(=O)Cc1csc(NC(=O)CSc2nc(-c3ccccc3)c(C#N)c(=O)[nH]2)n1 | 4 | · | -7 | 4 | 0 | i | -1 | 0
Cn1cc(C(=O)C(=O)NC2CCCCC2)c2ccccc21 | -2 | 1 | 13 | 15 | 1 | i | -3 | 3
COc1cccc(N(C(=O)Cn2nnc(-c3ccc(F)cc3)n2)C(C(=O)NCC2CCCO2)c2ccc(Cl)cc2)c1 (stereo unspecified) | 5 | -16 | · | -5 | -1 | i | 4 | 0
CC(C)/C=C/C(=O)N1CCC(N2CCC(C(=O)NCc3ccccn3)CC2)CC1 | 5 | 2 | 7 | 20 | 47 | i | -2 | 6
CSc1ccccc1NC(=O)C1CCCN(S(C)(=O)=O)C1 (stereo unspecified) | 10 | -6 | -13 | 6 | 2 | i | 2 | 2
C=C1CCC[C@]2(C)C[C@H]3OC(=O)C(CN(Cc4ccc(OC)c(OC)c4)CC(C)O)[C@H]3CC12 (stereo partly specified) | 2 | -8 | 14 | -7 | -6 | i | -9 | -10
CC(NC(=O)c1ccc(Br)o1)c1ccc(-n2ccnc2)cc1 (stereo unspecified) | -2 | · | -6 | · | · | · | 1 | 3
Cc1cc(N)ccc1-n1nc2ccccc2n1 | -10 | · | 3 | · | · | i | 3 | 4
Cn1c(=O)c2c(nc(N3CCC(C(N)=O)CC3)n2CCSc2nc3ccccc3s2)n(C)c1=O | -13 | -18 | -6 | · | · | i | 0 | 4
COC(=O)[C@]1(C)N[C@H](CN(C)C(=O)c2ccc(C(C)(C)C)cc2)[C@@H]2C(=O)N(Cc3ccccc3)C(=O)[C@@H]21 | 11 | 3 | · | · | · | · | -1 | 2
COc1ccc(CNS(=O)(=O)c2ccc3oc(C(=O)O)c(C)c3c2)cc1 | · | · | 10 | 7 | 5 | i | 2 | 5
O=C(NCc1cccs1)C1CCCN(C(=O)Nc2ccc(F)cc2)C1 (stereo unspecified) | -5 | 0 | 21 | -2 | 3 | i | 0 | -3
Cc1cnc(C(=O)Nc2ccc(C(=O)N3CCCCC3)cc2)cn1 | · | 1 | 0 | 1 | -9 | i | -1 | 7
COC(=O)c1cnc[nH]1 | 10 | -26 | -14 | 13 | -9 | i | 4 | 5
COC(=O)c1ccccc1COn1c(=O)c[n+]([O-])c2ccccc21 | -130 | -2 | 7 | -4 | 48 | i | -36 | -1
CCCCSc1nnc(CSc2ncccn2)n1C | -9 | · | -14 | -4 | -6 | i | 3 | 4
O=C(COc1coc(CN2CCCc3ccccc32)cc1=O)Nc1ccccc1 | 7 | · | -8 | · | · | i | -11 | -4
CSc1nnc(NC(=O)c2cc3ccccc3oc2=O)s1 | -8 | -8 | 2 | 2 | 6 | i | -6 | -3
NC(=O)C(c1ncc(C(F)(F)F)cc1Cl)c1c(Cl)cccc1Cl (stereo unspecified) | -8 | -13 | -5 | -3 | -4 | i | -8 | -4
Cc1ccc(S(=O)(=O)c2nc(Cc3ccccc3)oc2N2CCOCC2)cc1 | -9 | 13 | · | · | · | · | 4 | 3
Cc1ccccc1NC(=O)CN1C(=O)N/C(=C\c2cccn2-c2cccc(C(=O)O)c2)C1=O | 3 | · | -5 | 82 | 89* | i | -2 | 5 | eIF4H inh retest=86*;PABP FP inh retest=25
COC(=O)c1c(NC(=O)CSc2nnnn2C)sc(C)c1C | · | 2 | 1 | 0 | -3 | i | -5 | -4
CCOc1ccc(Br)cc1C(=O)Nc1ccc(C(=O)NCC(C)C)cc1 | -16 | · | · | 5 | 2 | i | -1 | -5
COc1ccccc1C(NC(C)=O)c1cc(Cl)c2cccnc2c1O (stereo unspecified) | 22 | -2 | 101* | -11 | 15 | i | -3 | -2
COc1ccc(Cc2nnc(N)s2)cc1OC | -30 | -13 | -9 | 2 | -8 | i | 1 | 5
Nc1ccc(C#Cc2ccc3c(=O)c4ccccc4oc3c2)cc1 | -46 | -10 | 52 | 1 | -3 | i | -7 | -1
Cc1cn(CC(=O)N2CCN(c3ccccn3)CC2)c(=O)[nH]c1=O | 13 | -19 | · | · | · | · | 2 | 6
CCc1c(C)sc(NC(=O)c2noc(C)c2[N+](=O)[O-])c1C#N | 10 | · | 6 | -8 | 2 | i | 0 | 3
CC(=O)c1ccc(Nc2nc(=O)c3cccnc3s2)cc1 | · | -20 | -2 | 12 | -8 | i | -2 | 0
CC1CCCC(C)N1C(=O)COC(=O)c1ccccc1O (stereo unspecified) | -27 | -13 | -10 | · | · | · | 1 | 2
CC(=O)c1cccc(NC(=O)C(C)OC(=O)C2=NNC(=O)CC2)c1 (stereo unspecified) | -1 | -12 | -21 | · | · | · | 0 | 1
CC(=O)c1cccc(NC(=O)N2C3CCC2CC(NC(=O)Nc2ccccc2)C3)c1 (stereo unspecified) | 0 | · | -5 | 17 | 8 | i | 4 | 6
COc1cc(C(=O)Nc2cccc(-c3nc4cc(C)cc(C)c4o3)c2)cc(OC)c1OC | · | · | · | -6 | -8 | · | 2 | -2

The order is random; 2.9% or so of the library scored in one or more.
